# Cruzain noTriton: blocks cruzain activity in detergent-free assay | P25779 | purified cruzain, Z-FR-AMC fluorescence, no detergent | Potency, µM, for the others: max response, negative = inhibition, usual class: inhibitors | actives 2.3% (n = 200,000); active = well fitted curve in the direction sought with a large enough effect; inconclusive = small, poorly fitted or top-dose-only effect, or another doubt; inactive = no such curve, though single readings can be large; an effect the other way counts as inactive or inconclusive;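 note: plate controls were enzyme without inhibitor for no effect and buffer without enzyme for full effect; nearly all actives have a fitted effect of over 40% in size; top concentration of the series not given in the record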
# Target sequence (P25779 123-467 limits assumed): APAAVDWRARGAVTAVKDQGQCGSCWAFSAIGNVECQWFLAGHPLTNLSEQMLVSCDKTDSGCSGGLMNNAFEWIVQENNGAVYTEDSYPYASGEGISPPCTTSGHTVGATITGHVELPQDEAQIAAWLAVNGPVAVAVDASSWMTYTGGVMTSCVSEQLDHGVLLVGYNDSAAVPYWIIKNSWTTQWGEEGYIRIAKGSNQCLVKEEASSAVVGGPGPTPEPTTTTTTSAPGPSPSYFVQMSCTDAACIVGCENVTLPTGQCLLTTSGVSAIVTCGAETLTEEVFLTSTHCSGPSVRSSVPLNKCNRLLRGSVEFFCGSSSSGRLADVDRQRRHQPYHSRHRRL
#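 Detergent-free condition (0.00005% Triton X-100) in acetate buffer pH 5.5 with DTT. 1.5 nM enzyme and compound were pre-mixed 15 min, then 2 uM Z-FR-AMC substrate added; reaction progress from fluorescence change between first and third reads (60 s).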
# Cruzain inh Det: inhibitors of Trypanosoma cruzi cruzain with detergent; P25779; purified cruzain, Z-FR-AMC fluorescence, 0.01% Triton; Potency, µM, inactives show max response, negative = inhibition, hits mostly inhibitors; actives 0.43% (n = 200,000); active = well fitted curve in the direction sought with a large enough effect; inconclusive = small, poorly fitted or top-dose-only effect, or another doubt; inactive = no such curve, though single readings can be large; an effect the other way counts as inactive or inconclusive;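 note: plate controls were neutral wells for no effect and buffer without enzyme for full effect; nearly all actives have a fitted effect of over 40% in size; top concentration of the series not given in the record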
#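 Detergent-containing arm of a paired screen for aggregation-based inhibition: 0.01% Triton X-100 present. Cruzain at 1.5 nM cleaved 2 uM Z-FR-AMC at pH 5.5 with 5 mM DTT; AMC fluorescence gain over 60 s measured activity.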
# NS1 inh: inhibitors of influenza NS1 protein function; S. cerevisiae slowed by influenza A NS1, growth recovery by OD600; Potency, µM (highest dose often 46.1 µM), for the others: at the highest dose activity, positive = more growth; actives 0.4% (n = 270,000); AID 2326; note: actives are rising curves; nearly all actives have a fitted effect of over 50% in size
#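 Recovery from NS1-induced slow growth read by OD600 in budding yeast switched to galactose assay medium (pH 6.0, -URA) at 1:100 dilution. Compound 23 nl per well; the matching strain lacking NS1 serves as control.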
# StopGo reporter: lowers the luciferase signal of an FMDV 2A StopGo reporter; human cells with a luciferase reporter of 2A StopGo recoding; control for the full effect not named in the record; actives 1.2% (n = 410,000); Potency, µM (top dose mostly 57.9 µM), for inactives: at the top dose signal change, negative = less light; active = well fitted falling curve with a large enough effect; inconclusive = small, poorly fitted or top-dose-only effect; inactive = no such curve, though single readings can be large or run the other way; tested in HEK293T cells; note: % is set by controls: 0 for no effect and ±100 for the full control effect; nearly all actives have a fitted effect of over 45% in size; luciferase light after 4 h
# LASV entry inh: Lassa virus entry inhibition; Lassa virus pseudotype entry inhibition, cell reporter; control for the full effect not named in the record; Potency, µM (highest dose often 37.9 µM), inactives show at the top dose activity change, negative = inhibition, hits mostly inhibitors; actives 1.2% (n = 300,000); active means well fitted inhibition curve with a large enough effect; inconclusive means small, poorly fitted or top-dose-only effect, or effect the other way; inactive means flat fitted curve, though single readings scatter; tested in HEK293 cells; note: % is set by controls: 0 for no effect and ±100 for the full control effect; nearly all actives have a fitted effect of over 50% in size; luciferase read-out
# MARV entry inh: Marburg virus entry inhibition; Marburg virus pseudotyped entry inhibition, cell reporter; control for the full effect not named in the record; about a third of the inactives were read at about 46 µM; Potency, µM (top dose mostly 37.8 µM), without a hit: top-dose activity change, negative = inhibition, most hits filed as inhibitors; actives 1.8% (n = 300,000); AID 540276; active = well fitted inhibition curve with a large enough effect; inconclusive = small, poorly fitted or top-dose-only effect, or effect the other way; inactive = flat fitted curve, though single readings scatter; tested in HEK293 cells; about a fifth of its hits are not listed in these tables; note: % is set by controls: 0 for no effect and ±100 for the full control effect; luciferase read-out
# RE007 growth inh: less growth of the S. pombe RE007 Vpr strain | S. pombe RE007 Vpr strain, BacTiter-Glo ATP luminescence, 24 h; control for the full effect not named in the record | Potency, µM (doses to about 92.2 µM), for inactives: at the highest dose activity change, negative = less growth | actives 0.21% (n = 360,000); active = well fitted falling curve with a large enough effect; inconclusive = small, poorly fitted or top-dose-only effect; inactive = no such curve, though single readings can be large or run the other way;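 note: % is set by controls: 0 for no effect and ±100 for the full control effect; nearly all actives have a fitted effect of over 50% in size; the assay follows cell death caused by Vpr and the record does not say whether a fall means rescue or toxicity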
#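 Fission yeast RE007 carrying one integrated HIV-1 vpr copy, seeded at OD 0.01 in PMG+AL medium with 23 nL pinned compound. Grown 24 h at 30 degrees; viability read by BacTiter-Glo luminescence after 5 min.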
# SARS PLP yeast: inhibitors of SARS-CoV papain-like protease in yeast. S. cerevisiae expressing SARS-CoV PLpro, growth rescue; control for the full effect not named in the record. actives 0.19% (n = 330,000). Potency, µM (doses to about 32.9 µM), for the others: at the highest dose activity, positive = growth rescue; note: 0% is about no effect; nearly all actives have a fitted effect of over 55% in size; growth read by luminescence after 48 h
# An asterisk follows results filed as active; ? = inconclusive; . = not tested or not shown; & = joins results of further samples; [ ] = another dose, or the depositor's remark. Unless noted, calls come from the whole dose curve; as a rule, active means well fitted rising curve with a large enough effect; inconclusive means small, poorly fitted or top-dose-only effect; inactive means no such curve, though single readings can be large or run the other way. Potency is the fitted concentration of half-maximal effect.
# Results follow in this order: Cruzain noTriton, Cruzain inh Det, NS1 inh, StopGo reporter, LASV entry inh, MARV entry inh, RE007 growth inh, SARS PLP yeast
- O=C(CSc1ncccn1)NC(=O)NCc1ccco1
    ., ., ., 7%, -3%[46.1 µM], 13%[46.1 µM], -7%, -5%
- Cc1ccc(-c2csc3ncn(CC(N)=O)c(=O)c23)cc1C
    ., ., -4%, 0%, ., ., -1%, -3%
- COc1cc2cc(Oc3ccc4ccc(=O)oc4c3)c(=O)oc2cc1OC(=O)/C=C/c1ccccc1
    ., ., 5%, 3%, ., ., -5%, -2%
- CC(=O)c1ccc(NC(=O)CSc2nnc(NC(=O)CN3CCOCC3)s2)cc1
    3%, 1.8%, -2%, 15%, 29%, ?, 2%, 0%
- CN(C)C(=O)N1CCC(C(=O)NCc2ccccc2)CC1
    -1%, -0.5%, 7%, ., -2%, 1%, -25%, 0%
- COc1ccc(C(=O)NCCONC(=O)c2ccc(OC)cc2)cc1
    ., ., 7%, 4%, -15%[46.1 µM], 10%[46.1 µM], -2%, 0%
- O=[N+]([O-])c1cc(/C=N/Nc2nc(N3CCCCC3)nc(N3CCCCC3)n2)ccc1O
    -9%, -11%, 8%, -3%, -1%, -7%, 0%, 4%
- CCCSc1nnc(CNC(=O)C23CC4CC(CC(C4)C2)C3)n1Cc1ccccc1
    2%, -1.3%, -5%, ?, ?, -26%, 13%, 10%
- CCc1ccc(N2C(=O)C(Cl)=C(N3CCCCCC3)C2=O)cc1
    ., ., -4%, -8%, ., ., -7%, 0%
- COc1ccc(CCNC(=O)c2ccc(S(=O)(=O)N(C)c3ccccc3)cc2)cc1OC
    ., ., -10%, ?, ?, -25%, 5%, -2%
- Cc1cc(C)cc(NC(=O)Cn2c(=O)n(Cc3ccc4c(c3)OCO4)c(=O)c3oc4ccccc4c32)c1
    5%, 0.8%, ., -12%, 3%[46.1 µM], ., ., .
- CCc1nnc(NC(=O)CSc2nnc(-c3ccc(OC)cc3)n2C)s1
    14%, 2.7%, 5%, 5%, -1%, 7%, 0%, 2%
- CN(C)n1cccc1/C=C(\C#N)S(=O)(=O)c1ccc(Cl)cc1
    ., ., 4%, -19%, 18%, 14%[46.1 µM], 2%, -8%
- CS(=O)(=O)NCCCNc1ccc(Cl)cc1[N+](=O)[O-]
    7%, -1.8%, -3%, 25%, 2%, 17%, 3%, 1%
- COc1ccc(NC2CC(=O)N(C(C)C)C2=O)cc1 (stereo not given)
    -4%, -0.1%, -1%, 13%, ?, ?, -10%, -1%
- CC(=NNC(=S)N1CCCCC1)c1cccc(C)n1
    ., ., ., 14%, ?, ?, -62%, .
- COc1ccc2c(CC(=O)Nc3ccc(N4CCOCC4)cc3)coc2c1
    ., ., 7%, 22%, ., ., 4%, -2%
- CC1Oc2ccccc2N(CC(=O)N2CCCc3ccccc32)C1=O (stereo not given)
    3%, 6.5%, -11%, -21%, ?, 11%, 2%, 10%
- CN1C(=O)NC(c2cccc(F)c2)C2=C1CC(C)(C)CC2=O (stereo not given)
    ., ., 5%, -17%, ., ., 16%, 2%
- CCCCC(=O)N/N=C/c1c(O)n(C2CC2)c(=S)[nH]c1=O
    8%, 4.3%, 7%, -12%, 22%, -4%, 9%, 3%
- CCCNC(=O)c1cccc(COCC(F)(F)C(F)F)c1
    5%, 3.6%, -15%, ., 2%, 0%, 7%, 1%
- CC(C)CC(=O)Nc1nnc(SCC(=O)Nc2nccs2)s1
    ., ., -13%, -11%, -4%, 27%, 3%, -1%
- COc1ccc(S(=O)(=O)N2CCCCCC2)cc1C(=O)NCCOc1ccc(C)cc1
    ., ., ., ?, -13%, ?, -3%, 2%
- S=C(NCCCN1CCOCC1)N1CCOCC1
    ., ., 5%, -5%, 5%, 15%[46.1 µM], 22%, 0%
- Cc1ccccc1NC(=O)CSc1nnc(CNC(=O)c2ccc3c(c2)OCO3)n1C
    ., ., 4%, 27%, ., -16%[46.1 µM], -6%, 3%
- CC1=C(C(=O)OC2CCCC2)C(c2ccccc2C(F)(F)F)CC(=O)N1 (stereo not given)
    -1%, -3.6%, ., ?, 12%[46.1 µM], ?, ., .
- Cc1nn(CCC(=O)Nc2cc(F)ccc2F)c(=O)c2nn(-c3ccccc3)c(C)c12
    -15%, -5.4%, ., ?, -3%[46.1 µM], ., ., .
- O=C(NCCc1ccccc1F)C1CCCN1S(=O)(=O)c1ccccc1 (stereo not given)
    0%, 3.7%, -17%, ., -16%, 4%, 8%, -5%
- Cc1ccsc1CN(C(=O)c1ccc([N+](=O)[O-])cc1)C1CCS(=O)(=O)C1 (stereo not given)
    ., ., -14%, -26%, -21%, 25%, 17%, 3%
- Cc1sc2nc(C3CC3)nc(N3CCN(C(=O)c4ccccc4F)CC3)c2c1C
    ., ., -39%, -21%, ?, ?, -18%, -4%
- CCCc1cc(=O)oc2cc(OCC(=O)N3CCN(C(=O)C4COc5ccccc5O4)CC3)ccc12 (stereo not given)
    ., ., 1%, ?, ., ., -6%, -4%
- CC(C)[C@H](NC(=O)c1ccccc1)C(=O)OCC(=O)Nc1sccc1C(N)=O
    ., ., ., ?, 0%[46.1 µM], 11%[46.1 µM], 11%, 2%
- CCn1c(=N)c(C(=O)NCC2CCCO2)cc2c(=O)n3cc(C)ccc3nc21 (stereo not given)
    ?, -15%, ., -16%, ?, 0%[46.1 µM], ., .
- CCOc1ccccc1NC(=O)Cc1cccs1
    ., ., 6%, -4%, 4%[46.1 µM], ?, 16%, -4%
- Cc1ccccc1C(=O)N1CCN(S(=O)(=O)c2ccccc2)CC1
    ., ., 8%, -9%, -21%, 2%, -3%, -3%
- CC1(C)CC(=O)C2=C(C1)N(CC1CCCO1)C(=O)NC2(C(F)(F)F)C(F)(F)F (stereo not given)
    -3%, 0.4%, 9%, ., 1%, 1%, -18%, -5%
- CN(C)C(=O)/N=N/C(=O)N(C)C
    4%, -3.2%, 0%, ., 20%, -15%&-7%&-7%, ., .
- CN1C2CCC1CC(=NO)C2
    ., ., 1%, -19%, ., ., -2%, 1%
- CN1CCN(S(=O)(=O)c2cccc3nsnc23)CC1
    ., ., -2%, 7%, -15%[46.1 µM], 20%[46.1 µM], -6%, -1%
- COc1ccc(OC)c(NC(=O)CSc2nccn2-c2cc(C)cc(C)c2)c1
    7%, -7.8%, ., 0%, ?, ., ., .
- CCn1c(O)c(/C=N/N=C/c2ccc(OC)cc2)c2cc(C3=NNC(=O)CC3)ccc21
    ., ., -2%, -3%, ?, 3%[46.1 µM], 18%, 1%
- Cc1nc(C)c(Oc2ccc(Cl)cc2Cl)c(=O)[nH]1
    ., ., -2%, -18%, 5%, ?, -15%, 1%
- CCC(C)NC(=O)c1ccc(NC(=O)C2CCCO2)cc1 (stereo not given)
    0%, 9.1%, 1%, 43%[activator], 28%, -5%, 16%, -2%
- Cc1ccc(NS(=O)(=O)c2ccc3c(c2)CCCN3C(=O)C2CCC2)c(C)c1
    2%, -5.6%, ., -23%, -23%[46.1 µM], ., ., .
- CNC(=O)CSc1nnc(COc2ccc(Cl)cc2)n1CCOC
    10%, 2.4%, 3%, -10%, -16%, -14%, -12%, -3%
- NC(=O)NC(=O)COC(=O)c1cccc(NS(=O)(=O)/C=C/c2ccccc2)c1
    ., ., 3%, 38%[activator], -24%, ?, 45%, -1%
- COc1ccc(-n2ccnc(SCC(=O)NC3CCCCC3)c2=O)cc1
    ., ., 11%, 0%, ., ., 1%, -2%
- Fc1ccc(C2CCCN2Cc2nc(-c3cnccn3)no2)cc1 (stereo not given)
    ., ., 4%, -4%, ., ., 1%, 0%
- CCOC(=O)c1c(C)[nH]c2cc(Br)c(O)cc12
    1%, -5.0%, -30%, 24%, 0%, 3%, 4%, -10%
- CC(C)(C)c1ccc(Oc2ccc(NC(=O)C3CC=CCC3C(=O)O)cc2)cc1 (stereo not given)
    ., ., 6%, -16%, ?, ?, 8%, -2%
- COc1ccccc1-c1nnc(SCc2ccccn2)n1C
    -9%, 2.8%, -8%, 25%, 21%[14.3 µM], 9%, 4%, 0%
- Cc1c(C(=O)NCCc2ccc(S(N)(=O)=O)cc2)cccc1[N+](=O)[O-]
    ., ., 6%, -5%, ?, 4%[46.1 µM], -1%, -1%
- COc1ccc(COC(=O)CCNC(=O)c2ccc(Cl)cc2)cc1
    ., ., ., -11%, 14%, 0%, 1%, .
- CCN(C(=O)COC(=O)C1CCN(S(=O)(=O)c2ccc3c(c2)OCCO3)CC1)C1CCCCC1
    ., ., ., -10%, 1%, 6%, 11%, -2%

# Part of the list above, as labelled records:
> Cc1ccc(NS(=O)(=O)c2ccc3c(c2)CCCN3C(=O)C2CCC2)c(C)c1
  Cruzain noTriton: 2%; Cruzain inh Det: -5.6%; NS1 inh: .; StopGo reporter: -23%; LASV entry inh: -23%[46.1 µM]; MARV entry inh: .; RE007 growth inh: .; SARS PLP yeast: .
> CN1CCN(S(=O)(=O)c2cccc3nsnc23)CC1
  Cruzain noTriton: .; Cruzain inh Det: .; NS1 inh: -2%; StopGo reporter: 7%; LASV entry inh: -15%[46.1 µM]; MARV entry inh: 20%[46.1 µM]; RE007 growth inh: -6%; SARS PLP yeast: -1%
> Fc1ccc(C2CCCN2Cc2nc(-c3cnccn3)no2)cc1 (stereo not given)
  Cruzain noTriton: .; Cruzain inh Det: .; NS1 inh: 4%; StopGo reporter: -4%; LASV entry inh: .; MARV entry inh: .; RE007 growth inh: 1%; SARS PLP yeast: 0%
> COc1ccc(COC(=O)CCNC(=O)c2ccc(Cl)cc2)cc1
  Cruzain noTriton: .; Cruzain inh Det: .; NS1 inh: .; StopGo reporter: -11%; LASV entry inh: 14%; MARV entry inh: 0%; RE007 growth inh: 1%; SARS PLP yeast: .

# Compounds were not picked by outcome. Share with any hit: about 4.7%.
